From PubChem
Menin-MLL FL inh: qHTS Assay for Inhibitors Targeting the Menin-MLL Interaction in MLL Related Leukemias: Competition With Fluorescein Labeled MLL-derived Peptide; Fluorescence polarization, fluorescein-MLL peptide displacement from menin; FP activity change, % at 61.4 µM; 290,000 tested, under 10 active; AID 1766, 2009; inconclusive = falling polarisation curve, or a change in total fluorescence; inactive = total fluorescence flat and polarisation flat or rising; no compound was filed as active; the % refers to the polarisation; negative = inhibition;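 further: % of control where 0% means no effect; inhibitors lower the polarisation; unlabelled MLL peptide was the positive control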
TRPML1 blocker: qHTS for Inhibitors of the Human Mucolipin Transient Receptor Potential 1 (TRPML1). TRPML1-inducible cells, Ca2+ dye fluorescence, FDSS; active compounds read low; inhibition of EC80 agonist-evoked calcium signal. AID 624415, 2012. hit rate 0.02% among 390,000. Mucolipin-1 (Homo sapiens), Q9GZU1. activity change, negative = inhibition, % (concentration not given with the values); in the data active means activity change below about -50%; inconclusive means about -30% to -50%; inactive means above about -30%;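 further: stimulus is agonist 54-4 at its EC80 concentration; on the % scale 0 is the no-effect control and ±100 the full control effect; the text of the record puts the active cut at -80%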
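Calcium fluorescence in TRPML1-DL cells induced overnight with Tet: a 110 s read after compound pin addition, then a 110 s antagonist read after challenge with 54-4 at 4 uM final (EC80).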
ClpP mod: qHTS Assay for Activators of ClpP. ATP-dependent Clp protease proteolytic subunit (Bacillus subtilis (strain 168)), P80244. hit rate 1.9% among 340,000. Potency, µM (series often up to 57.5 µM), for inactives: top-dose activity change, negative = active. AID 651965, 2013. purified B. subtilis ClpP, FRET peptide cleavage, 20 min; active = well fitted falling curve with a large enough effect; inconclusive = small, poorly fitted or top-dose-only effect; inactive = no such curve, though single readings can be large or run the other way; further: potency means the concentration at half of the fitted maximal effect; the source files actives as falling curves though it sought activators and does not explain the sign; nearly all actives have a fitted effect of over 65% in size; many hits overshoot -100%
Target sequence (P80244 whole entry, looked up): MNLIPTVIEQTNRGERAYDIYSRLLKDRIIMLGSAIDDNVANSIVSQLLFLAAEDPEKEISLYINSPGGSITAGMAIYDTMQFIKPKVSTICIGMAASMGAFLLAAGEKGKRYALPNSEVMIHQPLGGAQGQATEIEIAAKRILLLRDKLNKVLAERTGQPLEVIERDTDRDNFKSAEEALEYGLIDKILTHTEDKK
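FRET quenching reversal measured ClpP activation: 10 microg/mL B. subtilis ClpP at pH 8 with the FRET-FV decapeptide, read at 430 nm after 320 nm excitation. The 20-min minus 0-min signal was scaled between DMSO/no-enzyme wells and ADEP (5.8 microM final).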
TRPML1 ag: qHTS for Agonists of the Human Mucolipin Transient Receptor Potential 1 (TRPML1). activation, % (test concentration not listed). hit rate 0.12% among 410,000. AID 624414, 2012. TRPML1-expressing cells, Ca2+ dye fluorescence, FDSS; host cell line not named in the record; reference of the full effect not given here. Mucolipin-1 (Homo sapiens), Q9GZU1; in the data active = activation above about 50%; inconclusive = about 30% to 50%; inactive = below about 30%; further: 0% is about no effect; the text of the record puts the active cut at 80%
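TRPML1-DL cells, Tet-induced overnight (~16 h, 37 degrees C), loaded 45-90 min at room temperature with Ca8 no-wash calcium dye plus quencher. FDSS fluorescence: 10 s baseline, compound pin-transfer, 110 s agonist read, then EC80 54-4 (4uM final) and 110 s antagonist read.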
TRPV1 PAM: HTS Assay for Compounds that Act as Potentiators of the Vanilloid Receptor 1 | hit rate 0.02% among 320,000 | TRPV1-expressing cells, Fluo-8 calcium influx, capsaicin EC20 potentiation; host cell line not named in the record; control for the full effect not named in the record | potentiation, % at 8.33 µM | Transient receptor potential cation channel subfamily V member 1 (Homo sapiens), Q8NER1 | AID 540277, 2011; active means potentiation above 80%; inconclusive means 30% to 80%; inactive means below 30%; further: 0% is about no effect
Target sequence (Q8NER1 whole entry, looked up): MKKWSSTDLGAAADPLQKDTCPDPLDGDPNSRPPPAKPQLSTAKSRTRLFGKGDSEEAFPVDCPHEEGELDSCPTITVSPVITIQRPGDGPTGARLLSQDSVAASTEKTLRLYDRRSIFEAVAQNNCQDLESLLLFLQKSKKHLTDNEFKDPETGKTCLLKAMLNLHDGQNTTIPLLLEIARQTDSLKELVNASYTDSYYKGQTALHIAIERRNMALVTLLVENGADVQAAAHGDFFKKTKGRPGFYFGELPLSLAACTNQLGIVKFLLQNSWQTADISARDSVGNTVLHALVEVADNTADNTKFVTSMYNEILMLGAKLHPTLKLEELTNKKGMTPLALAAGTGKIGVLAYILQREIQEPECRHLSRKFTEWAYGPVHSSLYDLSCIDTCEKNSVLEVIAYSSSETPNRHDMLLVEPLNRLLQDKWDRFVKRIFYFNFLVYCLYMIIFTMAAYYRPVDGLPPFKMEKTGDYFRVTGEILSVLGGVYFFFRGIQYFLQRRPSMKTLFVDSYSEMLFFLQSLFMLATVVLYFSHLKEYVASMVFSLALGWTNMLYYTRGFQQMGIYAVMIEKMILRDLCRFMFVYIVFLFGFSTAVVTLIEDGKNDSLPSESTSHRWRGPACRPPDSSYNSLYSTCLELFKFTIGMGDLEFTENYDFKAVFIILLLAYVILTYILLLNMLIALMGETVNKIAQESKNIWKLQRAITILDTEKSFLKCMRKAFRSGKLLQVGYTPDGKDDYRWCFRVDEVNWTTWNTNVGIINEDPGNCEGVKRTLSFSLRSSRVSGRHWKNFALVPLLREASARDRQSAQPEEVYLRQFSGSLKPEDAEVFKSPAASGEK
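Cells expressing TRPV1 were dye-loaded with Fluo-8 and read kinetically: 10 s baseline, 3 min after compound (agonist portion), then 2 min after EC20 capsaicin (allosteric enhancer portion). Calcium-bound dye fluorescence at 480/520 nm.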
Sfp PPTase inh: qHTS Assay for Inhibitors of Bacillus subtilis Sfp phosphopantetheinyl transferase (PPTase); Biochemical Sfp PPTase activity, qHTS; Potency, µM, for the others: max response, negative = inhibition, most hits filed as inhibitors; hit rate 3.5% among 310,000; active means well fitted inhibition curve with a large enough effect; inconclusive means small, poorly fitted or top-dose-only effect, or another doubt; inactive means no such curve, though single readings can be large or run the other way;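 further: the enzyme is Sfp with the accession as filed and its product quenches rhodamine fluorescence; potency means the concentration at half of the fitted maximal effect; 0% = enzyme reaction without inhibitor and -100% = no enzyme wells; top concentration of the series not given in the record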
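Fluorescence-quenching assay with 15 nM Sfp, 5 uM rhodamine-CoA and 12.5 uM BHQ-2-labelled ybbR peptide in pH 7.6 Hepes/MgCl2 buffer. Enzyme was pre-incubated with compound for 15 min at room temperature. Rate was taken from the 30-min fluorescence change (525/598 nm).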
PINK1 expr mod: A Quantitative High throughput Screen to Identify Chemical Modulators of PINK1 Expression; hit rate 0.2% among 410,000; Potency, µM (top dose mostly 76.6 µM), without a hit: top-dose activation (PINK1 increase), hits mostly activators; PINK1 immunofluorescence, high-content cytometry, 24 h; active = well fitted activation curve with a large enough effect; inconclusive = small, poorly fitted or top-dose-only effect; inactive = flat fitted curve, though single readings scatter; cell line not stated here;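 further: potency means the concentration at half of the fitted maximal effect; % of control where 0% means no effect; nearly all actives have a fitted effect of over 65% in size; a mitochondrial uncoupler was the plate control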
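Readout is PINK1 immunofluorescence, quantified alongside mitochondrial, cell and nuclear markers by laser-scanning microplate cytometry. Cells from a stable line were exposed to compound titrations (5 concentrations) for 24 hours, with CCCP controls.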
Starred values were filed as active, the others as inactive; u = inconclusive; x = not tested or not shown; [ ] = remark or other dose. Random draw from the library. About 4.4% of those tested had a hit in this group.

mol	Menin-MLL FL inh	TRPML1 blocker	ClpP mod	TRPML1 ag	TRPV1 PAM	Sfp PPTase inh	PINK1 expr mod
O=C(c1cnc(N2CCCCC2)c2ccccc12)N1CCN(c2ccc(Cl)cc2)CC1	x	-2.6	25.1µM*	1.3	x	x	0.5%
CCC1(C)Cc2c(sc3nnn(CC(=O)Nc4cccc5ccccc45)c(=O)c23)CO1 (configuration not stated)	2.9	30.9	-2.1%	-0.2	u	21.8%	u
O=C1NC2(NN1c1ccccc1)C1CC3CC(C1)CC2C3 (configuration not stated)	-1.7	3.1	-3.8%	0.3	7.2	14.0%	16.4%
CCOc1ccc(C(=O)NCCc2csc(-c3cccnc3)n2)cc1	x	-0.6	-17.3%	0.8	x	x	0.1%
CCOc1ccccc1CNC(=O)CCCN1C(=O)CCn2nc(-c3cccn3C)cc21	x	2.7	3.0%	0.7	x	x	2.5%
CCc1nc2ccc(C(=O)Nc3cccc(OCC(=O)N(C)C)c3)cn2c1N(C)C(=O)c1ccncc1	x	x	-2.1%	-0.7	x	x	-0.5%
COc1ccc(C(=O)c2ccccc2CN2C(=O)c3ccccc3C2=O)cc1	x	12.6	1.6%	1.2	x	x	-2.6%
Cc1cc(NC(=O)CSc2nc(-c3ccco3)cc(C(F)(F)F)n2)no1	-2.8	1.4	25.1µM*	-0.3	7.2	-7.0%	15.8%
Cc1c(Cc2ccccc2)c(=O)oc2cc(OCc3nn[nH]n3)ccc12	0.6	0.7	72.8%	-0.5	6.4	79.4µM*	0.0%
CCOC(=O)c1ccc(NC(=O)Nc2cccc(C)n2)cc1	1.4	-5.1	0.7%	0.9	12.7	9.7%	8.9%
O=C(CSc1nc(-c2ccc(F)cc2)[nH]c1-c1ccc(F)cc1)Nc1ccc2c(c1)OCO2	x	-0.8	-10.4%	2.3	x	x	u
CCCCOc1ccc(C(=O)Nc2cccc(-n3cnnn3)c2)cc1OC	0.6	-1.5	-2.1%	-0.8	-23.1	-3.8%	-0.1%
CC(=O)c1cccc(NC(=O)c2ccc3c(=O)n4c(nc3c2)CCCCC4)c1	-7.6	26.3	0.6%	0.0	-12.2	18.2%	0.1%
COCCNC(=O)c1onc(CSc2cccc(Cl)c2)c1C(=O)O	2.7	-2.6	0.6%	-0.3	5.1	-5.8%	0.0%
CCOc1cc(CNC(=O)c2sc3ncnc(N(C)C4CCCCC4)c3c2C)ccc1OC	x	21.5	u	4.4	x	x	-0.5%
CC1(C)CC(=O)c2cc(-c3nc(-c4ccc(F)cc4)cs3)c(=O)[nH]c2C1	x	-9.0	-9.7%	1.0	x	x	7.4%
CSc1nc2c([nH]c3ccccc32)c(=O)n1-c1ccc(C)cc1	x	19.6	-25.9%	1.8	x	x	2.4%
CCOC(=O)C(=O)C1=C(N2CCOCC2)/C(=C\c2ccc(F)cc2)CC1	12.4	12.3	x	0.7	-24.5	-7.9%	3.6%
Cc1c(-c2cccc(Cl)c2)nc2ccccc2c1C(=O)OCC(=O)N(C)C1CCS(=O)(=O)C1 (configuration not stated)	-1.1	-21.4	-1.4%	0.0	8.1	1.3%	4.7%
COc1cc(CCN=Cc2cc(Cl)cc(Cl)c2O)c([N+](=O)[O-])cc1OC	x	x	-1.0%	9.3	x	x	0.3%
COC(=O)c1cc(C#N)c(=O)[nH]c1C	-2.5	7.4	-21.3%	0.3	9.4	11.3%	-0.9%
Oc1ccc(Br)cc1-c1ccn[nH]1	-2.7	3.1	-1.2%	2.4	7.1	20.1%	1.4%
CCn1c(C)nc2cc(C(=O)NN=Cc3ccc([N+](=O)[O-])cc3)ccc21	x	-7.5	-0.9%	0.9	x	x	7.7%
COC(=O)CC/C(=N/Nc1ccc(Cl)c(Cl)c1)C(=O)OC	0.0	-3.4	-0.9%	1.3	4.8	-3.0%	6.7%
COc1cccc(CNC(=O)c2cc(S(=O)(=O)N3CCCCC3)ccc2C)c1	x	2.0	1.7%	-1.0	x	x	2.2%
COc1ccc(Cl)cc1S(=O)(=O)N1CCCC(C(=O)NCc2ccccc2)C1 (configuration not stated)	0.3	10.8	0.9%	0.0	-7.4	12.4%	-0.3%
CCCCCCCCCn1c2c(c(=N)c3c1CCC3)CCCC2	2.3	83.3	x	4.5	-5.8	44.7µM*	-1.3%
CCCCOc1ccc(CNC(=O)c2ccc(NC(=O)N3CCSc4ncccc43)cc2)cc1	x	12.8	u	3.0	x	x	2.4%
Cc1nc(N)c(CC(Br)CBr)c(Cl)n1 (configuration not stated)	-1.4	35.0	-0.9%	-0.6	-3.9	23.0%	-0.4%
CCCCC(=O)N(C)c1c(CC)nc2c(OCC(=O)C(C)(C)C)cccn12	x	x	0.7%	-0.5	x	x	-0.6%
Fc1cccc(Cl)c1CSc1ccc(-c2cccnc2)nn1	6.6	24.5	-2.5%	1.4	-27.7	-13.1%	-0.9%
CN(CCCNC(=O)c1ccc(CS(=O)c2ccc(Br)cc2)o1)Cc1ccccc1 (configuration not stated)	x	-10.4	1.4%	0.3	10.9	25.1%	-0.8%
CCc1nnc(NC(=O)CSc2nnc(CNc3ccc(F)cc3)n2C2CCCCC2)s1	2.6	6.6	-23.6%	0.0	19.6	8.4%	5.1%
CN(C)c1ccc(N2CN=C3SCC(=O)N3C2)cc1	2.6	27.1	-4.0%	1.0	6.0	u	-3.7%
O=S(=O)(Nc1ccccc1O)c1ccc(Cl)nc1	0.5	3.8	0.1%	-0.2	-4.5	-5.9%	0.3%
O=c1[nH]c2cnn(-c3ccccc3)c2c(=O)n1O	x	-28.5	5.8%	-0.2	x	x	0.4%
COc1ccc(NC(=O)NNC(=O)c2ccc3ccccc3c2O)cc1OC	x	55.5	3.6%	0.7	28.2	19.6%	1.9%
CN1CCN(C(CNC(=O)C(=O)Nc2ccccc2C#N)c2ccc3c(c2)OCO3)CC1 (configuration not stated)	x	-10.0	-2.5%	0.2	x	x	-2.1%
COc1cc(/C=N/NC(=O)CCN2CCCCC2)ccc1O	-8.6	13.8	x	-0.1	2.9	-3.3%	-0.4%
O=C(/C=C/c1ccc2c(c1)OCO2)NCc1cn2cc(Cl)ccc2n1	-1.7	-16.2	x	-0.5	3.0	-6.3%	5.7%
Cc1ccc(NC(=O)CCNS(=O)(=O)c2cccc3nsnc23)cc1F	-0.8	25.8	x	-0.1	9.0	20.7%	3.4%
N#CCCN(Cc1cccs1)C(=O)Nc1ccc(F)cc1	u	-4.6	-0.3%	-0.1	-2.1	21.6%	0.9%
Cc1nc2ccccc2c2oc(C(=O)NCc3ccccn3)cc12	3.8	5.3	u	0.1	-4.9	27.4%	3.0%[38.3 µM]
CC(C)N1CCC(NC(=O)Nc2ccc3c(c2)OCO3)CC1	0.3	-1.7	x	0.0	2.4	1.1%	1.2%
Cc1c(Cl)cccc1Nc1n[nH]c(=S)s1	x	21.9	1.8%	0.1	x	x	-1.9%
CCOc1ccc(Cl)cc1/C=N/NC(N)=O	u	-1.2	-6.9%	2.8	4.9	24.9%	0.7%
COC(=O)N1CCN(c2ccc(Cl)c(Cl)c2)CC1	0.9	8.8	1.0%	4.6	-14.6	4.6%	1.3%[38.3 µM]
Cc1ccc(OC(=O)CN2C(=O)c3ccccc3C2=O)cc1C	-0.1	29.1	x	2.8	7.4	5.2%	1.9%
Cc1cc(NC(=O)c2nn3cccnc3c2Cl)no1	1.6	6.3	-2.4%	3.0	-4.9	10.3%	8.7%[38.3 µM]
Cc1cccc(OCc2nnc(NC(=O)c3cccs3)s2)c1	2.1	-21.7	-4.7%	-0.6	8.6	17.8%	0.6%
CCC(=O)Nc1ccc(NC(=S)NC(=O)/C=C/c2ccccc2)cc1	1.3	-6.8	-3.9%	1.1	-1.9	-17.2%	11.4%
O=C(NCc1ccco1)/C(=C\c1ccco1)NC(=O)c1ccc(Br)o1	10.8	5.3	-0.2%	-0.6	1.8	89.1µM*	1.2%
COc1ccc(NC(=O)COC(=O)C2CCC(C(C)(C)C)CC2)c([N+](=O)[O-])c1 (configuration not stated)	6.9	35.3	2.0%	2.3	25.1	4.7%	7.2%
COc1ccc(NC(=S)N(CCCN2CCCC2)Cc2cccn2Cc2ccc(Cl)cc2)cc1Cl	4.0	-11.9	0.2%	0.7	-1.9	79.4µM*	-2.1%
COc1ccc(S(=O)(=O)N2CCN(CC(=O)NCCc3cccs3)CC2)cc1	x	-11.8	0.0%	0.5	4.0	x	0.2%
C=C(C)CC1N(c2cccc(OC)c2)C(=O)[C@@H]2C(C(=O)O)[C@H]3C=C[C@@]12O3 (some centres not stated)	-0.2	-16.2	1.5%	0.3	-7.8	6.3%	0.0%
Cc1cc(C(=O)N2CC(C)CC(C)C2)c(C)o1 (configuration not stated)	x	7.4	-2.1%	3.5	-7.1	x	-0.5%
CN(C)C(=O)N1CCCC(C(=O)NCc2ccccc2Cl)C1 (configuration not stated)	-0.5	-1.6	-2.7%	0.9	-9.6	16.1%	-1.2%[38.3 µM]
CC1CCCCC1NC(=O)CN1CCC(NC(=O)C(C)(C)C)CC1 (configuration not stated)	x	6.4	1.4%	-0.4	x	x	0.4%
CC1CCN(C(=O)C2CCN(S(=O)(=O)c3cccc4nsnc34)CC2)CC1	1.6	-18.5	0.5%	2.0	-10.2	14.1%	-0.9%
Cc1nc2c(C(=O)NCc3cccs3)cnn2c(C)c1Cc1ccc(F)cc1	9.0	x	x	x	8.8	-16.9%	x
O=C(COc1ccccc1Cl)Nc1cc(NC(=O)COc2ccccc2Cl)cc(C(=O)O)c1	2.0	-6.5	u	-1.2	2.4	-4.4%	-0.2%
CCc1nccn1-c1cc(C(C)(C)C)nc2c(-c3ccc(Cl)cc3)cnn12	2.9	2.6	-8.0%	-0.5	-0.6	7.7%	-0.8%
